Screening results as filed in PubChem BioAssay.
HSD17B inhib – HSD17B dehydrogenase inhibition. Q99714. Potency, µM (series often up to 57.1 µM), without a hit: at the top dose activity change, negative = inhibition, actives largely listed as inhibitors. 7.6% of 75,000 active. recombinant HSD17B10, NADH fluorescence kinetic; many of its hits are not listed in these tables; active means well fitted inhibition curve with a large enough effect; inconclusive means small, poorly fitted or top-dose-only effect; inactive means no such curve, though single readings can be large or run the other way;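 further: the protocol describes HADH2 (HSD17B10) and not the HSD17B4 of the title; nearly all actives have a fitted effect of over 70% in size; most hits overshoot -100% by far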
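Activity followed as NADH fluorescence increase (ex 360, em 450 nm) every 30 seconds for 4 min, using final 90 uM beta-hydroxybutyryl CoA and 1 mM NAD+. Recombinant His-tagged enzyme, 20 nM, pH 9.0 Tris buffer, 15 min compound preincubation.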
An asterisk follows results filed as active; ? = inconclusive; & = joins results of further samples; [ ] = remark or other dose. On the % scale 0 is the no-effect control and ±100 the full control effect; potency means the concentration at half of the fitted maximal effect. A portion of the library; the hit share may differ from the screen's.

SMILES	HSD17B inhib
CCC(C)n1c(SCC(=O)NC(=O)Nc2ccc3c(c2)OCCO3)nc2ccccc2c1=O (stereo not drawn)	-4.9%
O=C(NCc1ccco1)C1CCN(C(=O)c2cc3sccc3n2Cc2ccc(F)cc2)CC1	1.7%
CCOC(=O)c1ccc(NC(=O)CSc2nnc(-c3ccncc3)n2C)cc1	-3.0%
Cc1nn(S(=O)(=O)N(C)C)c(C)c1CN1C(=O)c2ccccc2C1=O	9.2%
COC(=O)c1ccccc1NC(=O)CC(NCc1ccccc1)C(=O)O (stereo not drawn)	1.1%
Cc1cc2nc(C)c(Cc3ccccc3)c(=O)n2[nH]1	?
COc1ccc(-c2cc(NCCc3ccncc3)n3ncnc3n2)cc1	?
COc1ccc(OCCSc2nnc(-c3ccoc3C)n2C)cc1	-12.3%
N#CCCn1c(Cl)nc2ccccc21	2.7%
C[C@]1(C(=O)NCCc2c[nH]c3ccccc23)C=C[C@@H](Cc2ccccc2)N1C(=O)c1ccccc1	4.0%
O=C1CC(Cc2ccccc2)C(=O)N1CCCn1ccnc1 (stereo not drawn)	-1.8%
O=C(CCCn1c(=S)[nH]c2cc3c(cc2c1=O)OCO3)N1CCN(c2ccccc2)CC1	-0.6%
CN(C)CCCN=C(N)N	4.0%[11.4 µM]
COc1ccc2c(c1)OCC(Cc1ccc(OC)c(OC)c1)C2=O (stereo not drawn)	-0.2%
CC(=O)Nc1ccc(C(=O)N2CCN(C(=O)c3ccco3)CC2)cc1	10.2%

In the list so far, 6 contain a carbonyl joined to an NH by a bond outside any ring.
SMILES	HSD17B inhib
CCC(C)n1c(SCC(=O)NC(=O)Nc2ccc3c(c2)OCCO3)nc2ccccc2c1=O (stereo not drawn)	-4.9%
O=C(NCc1ccco1)C1CCN(C(=O)c2cc3sccc3n2Cc2ccc(F)cc2)CC1	1.7%
CCOC(=O)c1ccc(NC(=O)CSc2nnc(-c3ccncc3)n2C)cc1	-3.0%
COC(=O)c1ccccc1NC(=O)CC(NCc1ccccc1)C(=O)O (stereo not drawn)	1.1%
C[C@]1(C(=O)NCCc2c[nH]c3ccccc23)C=C[C@@H](Cc2ccccc2)N1C(=O)c1ccccc1	4.0%
CC(=O)Nc1ccc(C(=O)N2CCN(C(=O)c3ccco3)CC2)cc1	10.2%

Next section
SMILES	HSD17B inhib
COc1cc(OC)c2c(C)c(Cl)c(=O)oc2c1	3.98µM*
CC(=O)OCC1OC(C#Cc2ccc(Cl)cc2)C=CC1OC(C)=O (stereo not drawn)	1.9%&-3.3%[11.4 µM]
COC(=O)[C@@]1(Cc2ccc(F)cc2)[C@H]2c3cc(C(=O)N4CCCC4)n(CCc4c[nH]c5cc(F)ccc45)c3C[C@H]2CN1C(=O)c1ccccc1	18.5%
Cc1ccc(/C(O)=C2\C(=O)C(=O)N(c3cc(C)on3)C2c2cccc(Br)c2)cc1 (stereo not drawn)	-1.1%
CCOC(=O)N1CCN(c2nc(-c3ccc(F)cc3)cs2)CC1	-7.6%
CCN(CC)C(=O)Cn1nnc(-c2ccc(C)o2)n1	3.3%
CCCC12CN(C(=O)c3ccc(OC)cc3)CC(C)(CN(C(=O)c3ccc(OC)cc3)C1)C2=O	2.6%
COc1cc(N2C(=O)NC3CC2(C)Oc2ccc(Br)cc23)cc(OC)c1OC (stereo not drawn)	14.3%
COc1cc2c(cc1OC)C(C(=O)NCc1ccco1)C(c1cccs1)N(C)C2=O (stereo not drawn)	-11.3%
CC(C)N(Cc1nc(-c2ccccc2)no1)C(=O)CSc1ccccc1	-14.0%
COc1ccc(OCCC(=O)Nc2cc(C)on2)cc1	-1.6%
COc1ccc(-c2coc3c(CN4CCCCC4)c(O)c(CN4CCCCC4)c(O)c3c2=O)cc1	8.7%
COC(=O)c1ccc(CSc2nc3c(cnn3-c3ccc(C)c(C)c3)c(=O)[nH]2)o1	6.3%
O=S(=O)(c1cccc(-c2cn3cccnc3n2)c1)N1CCCCCC1	25.1µM*
COc1ccc2[nH]cc(CCNc3ncncc3-c3ccccc3CN(C)C)c2c1	-0.8%

Three entries out of the list, ordered by count of non-hydrogen atoms, falling:
SMILES	HSD17B inhib
CCCC12CN(C(=O)c3ccc(OC)cc3)CC(C)(CN(C(=O)c3ccc(OC)cc3)C1)C2=O	2.6%
COc1ccc2[nH]cc(CCNc3ncncc3-c3ccccc3CN(C)C)c2c1	-0.8%
COC(=O)c1ccc(CSc2nc3c(cnn3-c3ccc(C)c(C)c3)c(=O)[nH]2)o1	6.3%

New compounds follow.
SMILES	HSD17B inhib
COc1ccccc1Oc1c(C)oc2c(CN3CCN(C)CC3)c(O)ccc2c1=O	31.6µM*
CCc1cc(-c2n[nH]c(C)c2-c2nc3ccccc3n2C)c(O)c(CN2CCN(C)CC2)c1O	15.0%
NC(=O)c1ccc[n+]([C@@H]2OC(COP(=O)([O-])OP(=O)(O)OCC3OC(n4cnc5c(N)ncnc54)C(O)C3O)C(O)C2O)c1 (stereo partly drawn)	5.6%
O=C(Nc1ccc(OC(=O)c2ccco2)cc1)c1ccco1	2.3%
C=CCn1c(NCCO)nc2c1c(=O)n(C)c(=O)n2C	10.6%
CCN1CCCC1Cn1cnc2c([nH]c3cccc(Cl)c32)c1=O (stereo not drawn)	?
COc1c2c(nc3ccccc13)OC(C(C)(O)COC(C)=O)C2 (stereo not drawn)	-8.0%
Cc1sc(NC(=O)c2ccco2)c(C(c2cccnc2)N2CCN(c3ccc(F)cc3)CC2)c1C (stereo not drawn)	?
CCOC(=O)N/N=C1/C[C@@H](O)[C@@H](O)[C@@H]2[C@H]3C(=O)N(c4ccc(F)cc4F)C(=O)[C@@H]3CC[C@@H]12	2.2%[11.4 µM]
CCC(CC)NCc1ccc(OC)cc1OC	-0.6%
CCOC(=O)c1ccc(CNC(=O)Cn2nnc(-c3ccc(C)cc3)n2)o1	-3.4%
Cc1ccc2c(c1)c1c(n2CC(O)Cn2c(C)nc3ccccc32)C(=O)CCC1 (stereo not drawn)	31.6µM*
CCc1c(C(=O)NCc2cnn(C)c2)csc1C	2.4%
COc1ccccc1CNC(=O)C1CCN(S(=O)(=O)N2CCCCC2)CC1	7.2%
CCOCCn1c(N2CCN(c3ccc(OC)cc3)CC2)nc2c1c(=O)[nH]c(=O)n2C	10.8%
C=CCNC(=O)c1ccc(C)c(Br)c1	-9.5%
COc1ccccc1-n1cc(C(=O)NCC(=O)N2CCN(c3ccccc3)CC2)c2ccccc2c1=O	-16.9%
Cc1cccc(Nc2ncc3c(n2)CC(c2ccco2)CC3=O)c1 (stereo not drawn)	?
O=C(Cn1cnc2c(oc3ccccc32)c1=O)NCCc1ccccc1	-9.7%
Cn1c(=O)oc2cc(S(=O)(=O)NCCN3CCc4ccccc4C3)ccc21	5.2%
C=CCOc1ccc(CNc2nn[nH]n2)cc1	-6.4%
CC1(C)CC(=O)C2=C(C1)N(Cc1ccco1)C(=O)NC2(C(F)(F)F)C(F)(F)F	4.9%
COc1cccc(-n2c(SCC(N)=O)nc3c([nH]c4ccccc43)c2=O)c1	?
O=C(NCC(c1cccnc1)N1CCN(c2ccc(F)cc2)CC1)c1ccc2c(c1)OCO2 (stereo not drawn)	-3.5%
c1ccc(N2CCN(CCCOc3ccc4c(c3)OCO4)CC2)cc1	-15.6%
COC(=O)c1nc2n(n1)C(c1cc(OC)ccc1OC)C(C(=O)OC1CCCCC1)=C(C)N2 (stereo not drawn)	-6.7%
COc1ccc(Oc2ncc3nc(C)c(=O)n(C[C@H]4CCCO4)c3n2)cc1	-8.4%
COc1ccc(CC2S/C(=C(\C#N)C(=O)NCc3ccco3)N(c3ccc(C)cc3)C2=O)cc1 (stereo not drawn)	-16.1%
CCC(C)NC(=O)Cn1c(=O)n(-c2ccccc2)c(=O)c2ccc(C(=O)NCc3ccco3)cc21 (stereo not drawn)	4.0%
Cc1ccc(C)c(/C(O)=C2\C(=O)C(=O)N(CCCN(C)C)C2c2cccnc2)c1 (stereo not drawn)	-2.8%
CNS(=O)(=O)c1cccc(C(=O)OCc2cc(Cl)cc3c2OCOC3)c1	1.9%
CCOc1ccccc1N(CC(=O)Nc1ccccc1C(=O)O)S(C)(=O)=O	5.4%
O=C(CSc1nnc(CCCO)n1-c1ccccc1)NCCc1ccccc1	4.1%
COc1ccc(O[C@H]2C=C[C@@H](c3ccccc3)O[C@H]2COC(=O)CC/C(C)=N\OC[C@@H](C)[C@H](OCc2ccccc2)C(C)C)cc1	-4.6%[11.4 µM]
O=C(COC(=O)c1cccnc1)Nc1cccc(Cl)c1	5.1%
Cn1c(SCC(=O)NCc2cccs2)nnc1-c1ccc(S(=O)(=O)N2CCCC2)cc1	2.8%
CCC(C)NC(=O)CS(=O)(=O)Cc1nc(-c2cccc(OC)c2)oc1C (stereo not drawn)	0.1%
Clc1ccc(Nc2ncnc3c2cnn3-c2ccccc2)cc1	?
Cn1c(=O)n(Cc2ccccc2)c(=O)c2c1nc1n2CCCN1C1CCCCC1	5.0%
COc1ccc2c(C)cc(SCC(=O)N3CCOCC3)nc2c1	-2.1%
CC1=C(C(=O)N2CCN(C(=O)c3ccco3)CC2)C2(CCC(C)CC2)OC1=O (stereo not drawn)	3.2%
CCOC(=O)c1ccc(N=C2NC(=O)CS2)cc1	-12.5%
COc1ccc(S(=O)(=O)N2CCN(c3c(C)cccc3C)CC2)cc1OC	0.6%
COCCNC(=O)CCSCc1ccccc1F	22.2%
Cn1cccc1Cc1nnc(SCC(=O)NCc2ccco2)n1-c1ccc(F)cc1	?
CCCCN1CCc2c([nH]c3c(C)cccc23)C1=O	-20.1%
CC1=C(C(=O)OCc2ccccc2)C(c2ccc(N3CCOCC3)cc2)NC(=O)N1 (stereo not drawn)	-0.6%
COc1ccc(-c2nc(-c3cccc(C(F)(F)F)c3)no2)cc1OC	-23.6%
CC(C)c1ccc(-c2nc3c([nH]2)c(=O)n(C)c(=O)n3C)cc1	-20.2%
CCc1ccc2oc(=O)cc(CN3CCN(CCO)CC3)c2c1	7.2%
CS(=O)(=O)c1ccc(N2CCN(C3CC(=O)NC3=O)CC2)cc1 (stereo not drawn)	6.3%
Cn1c(=O)c2c(nc(N3CCCCC3)n2C)n(C)c1=O	13.4%
C=COCC1CN2C(CCC(C)C2c2ccc(Br)cc2)C(=O)O1 (stereo not drawn)	-0.6%&-1.1%[11.4 µM]
CN1CCN(S(=O)(=O)c2ccc(-c3ccc(Cl)cc3)cc2)CC1	0.4%
Clc1ccccc1-c1nccc(NCc2ccccc2)n1	1.1%
Clc1cccc2sc(N3CCOCC3)nc12	5.0%
CCOC(=O)C1CCN(c2c(N3CCN(Cc4ccccc4)CC3)c(=O)c2=O)CC1	-4.9%
CN(C)c1ccc(C(=O)C(O)c2ccc(C(C)(C)C)cc2)cc1 (stereo not drawn)	?
COc1cccc(NC(=O)CN(C)S(=O)(=O)c2ccc(C)cc2)c1	0.1%
C1=C(c2cccc3ccccc23)N2CCN=C2S1	-5.7%

(more compounds)
SMILES	HSD17B inhib
CCN(CC)CCn1c(=S)[nH]c2ccccc2c1=O	2.1%
O=c1cc(N2CCN(c3ccccc3)CC2)[nH]c(=O)n1-c1ccccc1Cl	-6.4%
COc1ccccc1N1CCN(C(=O)c2ccoc2C)CC1	-1.1%
Fc1ccc(NCc2cccnc2)cc1	2.0%
CC(=O)Nc1ccn(-c2ccccc2)n1	-24.7%
O=C(Nc1ccc(Cl)cn1)c1cc(S(=O)(=O)N2CCCCC2)ccc1Cl	-13.1%
N[C@]1(C(=O)O)CCc2cc(P(=O)(O)O)ccc21	-14.5%
COC(=O)C1=C(C(C)=O)C(c2ccc(C(=O)OC)cc2)n2nnnc2N1 (stereo not drawn)	11.0%
Cc1ccc2c(c1)N(CC(=O)NC1CCCc3ccccc31)C(=O)CO2 (stereo not drawn)	10.4%
CCOc1c2c(nc3ccc(Cl)cc13)CCC2	-3.6%
CCOc1ccc(OCC)c(NS(=O)(=O)c2ccc3c(c2)n(C)c(=O)c(=O)n3C)c1	-4.1%
COc1ccccc1N1CCN(C(=O)CSc2nnc3n2C(C)(C)Cc2ccccc2-3)CC1	4.8%
CCN(CC)c1ccc(CN(C(=O)c2cc(OC)c(OC)c(OC)c2)C2CCS(=O)(=O)C2)cc1 (stereo not drawn)	90.1%[activator]
COc1cccc2oc(-c3ccc(O)cc3)cc(=O)c12	?
Cc1nn(C)cc1CNC(=O)CCC(=O)O	1.0%
O=C(O)COc1ccc(OCCNC[C@@H](O)COc2ccccc2)cc1	13.3%
CCCOc1ccc(N2C(=O)CC(SCCN)C2=O)cc1 (stereo not drawn)	-4.8%
O=C(Nc1nccs1)c1ccc(S(=O)(=O)NCc2cccs2)cc1	-28.8%
CC#CC(C)C(OCOC)C(CC(C)Cc1cc(Br)cc(OCc2ccccc2)c1OC)OC (stereo not drawn)	1.3%[11.4 µM]
Cc1cccc(Nc2nc3c(c(=O)n(C)c(=O)n3C)n2CC(O)CO)c1 (stereo not drawn)	2.1%
CCCCOC(=O)C1=C(C)NC2(O)c3ccccc3C(=O)C12O (stereo not drawn)	1.8%
COc1cccc(OC)c1C(=O)n1nc(C)cc1C	1.5%
CCCCn1nnnc1SCC(=O)Nc1ccc(F)cc1	-1.5%
c1cncc(-c2nc(N3CCNCC3)c3ccccc3n2)c1	-9.1%
COC(=O)C1CCC(C)(C(=O)Nc2ccccc2)C1(C)C (stereo not drawn)	-18.9%
CCOC(=O)c1ccc(NS(=O)(=O)c2ccc3c(c2)CCCN3C(C)=O)cc1	0.0%
CCCc1cc(=O)n2[nH]c(NCc3c(F)cccc3Cl)nc2n1	3.1%
c1ccc2c(Oc3ccc4c(c3)OCO4)nncc2c1	4.9%
CC(=O)c1cccc(-n2nnnc2SCC(=O)Nc2ccccc2N2CCCCC2)c1	-6.4%
NCCn1c(=O)c(CCc2ccccc2)nc2cncnc21	2.5%
CCCNC(=O)N1CCN(S(=O)(=O)c2ccc(C)cc2)CC1	5.2%
CCCOc1ccc2oc(=O)c3c(c2c1)CCCN3C(=O)CN1CCc2ccccc2C1	-15.9%
